Screens as filed in PubChem BioAssay.
PINK1 modulator: PINK1 expression modulation; PINK1 immunofluorescence, high-content cytometry, 24 h; Potency, µM (top dose mostly 76.6 µM), for inactives: top-dose activation (PINK1 increase), most hits filed as activators; hit rate 0.2% among 410,000; AID 624263; active = well fitted activation curve with a large enough effect; inconclusive = small, poorly fitted or top-dose-only effect; inactive = flat fitted curve, though single readings scatter; cell line not stated here;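 note: potency is the fitted concentration of half-maximal effect; % of control where 0% means no effect; nearly all actives have a fitted effect of over 65% in size; a mitochondrial uncoupler was the plate control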
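Compound titrations (5 concentrations, 24 h) on a stable cell line; DMSO and CCCP controls. Endpoint: fixed-cell PINK1 immunofluorescence with mitochondrial, cell and nuclear markers, scanned by microplate cytometer.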
TRPML1 blocker: human mucolipin-1 channel inhibition | Q9GZU1 | TRPML1-inducible cells, Ca2+ dye fluorescence, FDSS; stronger effect = lower value; inhibition of EC80 agonist-evoked calcium signal | activity change, negative = inhibition, % (concentration not given with the values) | hit rate 0.02% among 390,000; in the data active means activity change below about -50%; inconclusive means about -30% to -50%; inactive means above about -30%;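 note: stimulus is agonist 54-4 at its EC80 concentration; % is set by controls: 0 for no effect and ±100 for the full control effect; compound concentration not given in the record; the text of the record puts the active cut at -80%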
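TRPML1-DL cells, Tet-induced overnight (~16 h, 37 °C) at 1,500 cells/well, were loaded with Ca8 no-wash dye plus quencher for 45-90 min at room temperature. Compounds were pinned during FDSS kinetic reading; agonist 54-4 at EC80 (4 uM final) then added.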
CtBP-E1A inh: CtBP/E1A binding inhibition; AlphaScreen GST-E1A/His-CtBP binding, 1536-well; stronger effect = lower value; control for the full effect not named in the record; hit rate 0.49% among 340,000; activity change, % (test concentration not listed); in the data active means activity change below about -65%; inconclusive means about -30% to -65%; inactive means above about -30%; note: % is set by controls: 0 for no effect and ±100 for the full control effect; compound concentration not given in the record
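AlphaScreen with 125 nM GST-E1A and 125 nM His-CtBP (5X stocks) in Tris pH 8.0, 300 mM NaCl, BSA, Tween 20, TCEP. Compounds preincubated 2 h at 37 deg C, then glutathione donor/nickel acceptor beads added for 1 h at 37 deg C in dark.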
D2 agonist: agonists of human D2 dopamine receptor (beta-arrestin) | P14416 | DiscoveRx PathHunter D2 beta-arrestin, luminescence, 90 min; 100% = 57 uM dopamine signal | activation, % (concentration not given with the values) | hit rate 0.084% among 360,000 | AID 624465; in the data active = activation above about 40%; inconclusive = about 15% to 40%; inactive = below about 15%; note: compound concentration not given in the record; the text of the record calls up to 30% inactive
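DiscoveRx PathHunter D2 beta-arrestin cells (2,100/well) attached overnight, then compound-stimulated 90 min at 37 C in HBSS/10 mM HEPES/0.1% Tween-20 buffer; beta-galactosidase complementation read by luminescence after 1 h at ambient temperature. Dopamine 57 uM final (EC100) as control.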
TRPML1 agonist: human mucolipin-1 channel agonism; Q9GZU1; TRPML1-expressing cells, Ca2+ dye fluorescence, FDSS; host cell line not named in the record; reference of the full effect not given here; activation, % (no concentration beside the values); hit rate 0.12% among 410,000; AID 624414; in the data active = activation above about 50%; inconclusive = about 30% to 50%; inactive = below about 30%; note: 0% is about no effect; the text of the record puts the active cut at 80%
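Agonist activity was taken from a 110 s kinetic Ca2+ dye read on the FDSS after pinning compounds onto TRPML1-DL cells. The cells were seeded at 1,500/well with Tet inducer, incubated about 16 h, then dye-loaded at room temperature.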
Six1-Eya2 blk: blocks human Six1 binding to Eya2; activity change, % (no concentration beside the values); AlphaScreen GST-Six1/His-Eya2 binding, biochemical; stronger effect = lower value; control for the full effect not named in the record; AID 651725; hit rate 0.56% among 360,000; Q15475+O00167; in the data active = activity change below about -65%; inconclusive = about -30% to -65%; inactive = above about -30%; note: % is set by controls: 0 for no effect and ±100 for the full control effect; compound concentration not given in the record
Target sequence (O00167 whole entry, looked up): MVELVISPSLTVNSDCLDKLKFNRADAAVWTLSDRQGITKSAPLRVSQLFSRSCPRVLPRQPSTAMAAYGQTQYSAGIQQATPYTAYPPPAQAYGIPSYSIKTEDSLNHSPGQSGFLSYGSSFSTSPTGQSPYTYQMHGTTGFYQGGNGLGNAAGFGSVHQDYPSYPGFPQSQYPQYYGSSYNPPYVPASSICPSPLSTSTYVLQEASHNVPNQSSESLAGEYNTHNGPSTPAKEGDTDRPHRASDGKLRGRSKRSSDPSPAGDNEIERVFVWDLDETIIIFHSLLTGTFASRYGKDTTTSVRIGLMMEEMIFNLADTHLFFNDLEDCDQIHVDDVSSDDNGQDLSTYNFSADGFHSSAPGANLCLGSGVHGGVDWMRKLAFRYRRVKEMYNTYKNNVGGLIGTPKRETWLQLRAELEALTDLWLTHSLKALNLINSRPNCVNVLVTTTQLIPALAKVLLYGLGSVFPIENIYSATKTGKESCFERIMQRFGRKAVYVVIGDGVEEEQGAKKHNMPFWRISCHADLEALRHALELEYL
Target sequence (Q15475 whole entry, looked up): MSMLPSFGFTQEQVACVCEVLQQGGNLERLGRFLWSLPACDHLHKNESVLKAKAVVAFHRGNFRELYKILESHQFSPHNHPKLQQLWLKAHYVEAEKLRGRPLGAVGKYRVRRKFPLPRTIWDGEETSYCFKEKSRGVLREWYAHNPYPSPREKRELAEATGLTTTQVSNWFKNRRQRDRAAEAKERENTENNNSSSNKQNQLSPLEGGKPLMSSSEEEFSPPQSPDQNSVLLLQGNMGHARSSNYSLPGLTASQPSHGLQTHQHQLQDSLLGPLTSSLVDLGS
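AlphaScreen with GST-Six1 and His-Eya2 (5X mix: 250 nM and 500 nM), glutathione donor and nickel acceptor beads; buffer 50 mM Tris pH 8.0, 300 mM NaCl, 1 mM TCEP; 1 h at 37 C in the dark.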
* = called active by the depositor; u = inconclusive; x = not tested or not shown; & = joins results of further samples; [ ] = remark or other dose.

Molecule	PINK1 modulator	TRPML1 blocker	CtBP-E1A inh	D2 agonist	TRPML1 agonist	Six1-Eya2 blk
C=CCc1cccc(/C=N/NC(=O)C[n+]2ccccc2)c1O	-1.2%	16	-91*	10	1.0	-89*
CC1Cc2ccccc2N1C(=O)Cn1nnc(-c2ccccc2NC(=O)C2CCC2)n1 (configuration not stated)	-2.7%[38.3 µM]	-19	-2	5.7	-0.2	-4
O=C(Cn1ccc([N+](=O)[O-])n1)N1CCCCCC1	2.1%	16	3	-1.4	-0.9	2
Oc1ccc(-c2cnc3c(Nc4cccc(OC(F)(F)C(F)F)c4)nccn23)cc1	12%	x	-7	7.8	0.3	-12
Cc1cc(NS(=O)(=O)c2ccc(NC(=O)/C=C/c3ccccc3)cc2)nc(C)n1	0.5%	4	-4	2.6	-0.1	-9
C=C(C)Cn1c(=O)c(NC(=O)c2ccccc2)c2n(c1=S)CCC2	-0.8%	-1	0	-4.3	0.9	3
Cc1cccnc1NC(=O)C12CCC(C)(C(=O)O1)C2(C)C (configuration not stated)	7.3%[38.3 µM]	22	5	0.2	-0.3	0
CCCCN(Cc1ccco1)S(=O)(=O)c1ccc(-c2ccc(=O)[nH]n2)s1	2.6%	-8	-11	8.3	-1.2	-8
CCOc1ccc(NC(=O)CSc2nnc(CNC(=O)c3c(F)cccc3Cl)o2)cc1	-1.7%	-1	x	x	-0.2	x
O=C(c1ccc(Cl)cc1)c1ccccc1C(=O)N1CCOCC1	x	5	10	-1.2	0.4	5
COc1cc(/C=N/Nc2ccccn2)ccc1OCC(C)C	6.6%	11	-7	-1.2	5.4	-4
CC(NC(=O)c1ccco1)c1nc(-c2ccccc2Cl)no1 (configuration not stated)	3.5%	5	5	2.4	2.3	2
CC(C)N(CCNC(=O)c1ccc(OCC2CCCO2)cc1)C(C)C (configuration not stated)	-0.9%	7	27	-3.6	0.0	10
Cc1cccc(NC(=O)c2cc(S(=O)(=O)N3CCCCCC3)cn2C)c1C	0.1%	-12	x	x	0.5	x
COc1cc(C(=O)NNC(=O)COc2ccc(Cl)cc2)ccc1OCC(=O)N1CCOCC1	1.6%	32	12	0.1	-0.1	-3
Cc1cc(OCC(=O)Nc2ccncc2)ccc1Cl	1.9%	23	-2	9.9	0.3	-3
CCOCCOCN(C#N)c1nc(OC)nc(N(C)C)n1	-0.5%	25	-5	-0.3	-0.1	2
C=CCc1cccc2cc(C(=O)NCCc3c(C)[nH]c4c(C)cccc34)c(=O)oc12	5.1%	5	x	x	4.5	x
CC1CCCC(C)N1/N=C/c1ccc(C#N)cc1 (configuration not stated)	3.1%	5	-18	1.6	1.7	-24
COc1ccc(CCNC(=O)c2ccc3c(c2)CCN3S(=O)(=O)c2ccc(C)cc2)cc1OC	0.1%	16	x	x	0.5	x
C[C@@H]1CN([C@@H](C)CO)C(=O)CCCn2nncc2CO[C@H]1CN(C)Cc1cccc2c1OCCCO2	0.0%	x	4	-3.5	x	4
O=C(CSc1nnc(CNC(=O)c2ccccc2F)o1)NC1CCCCC1	1.9%	7	-1	0.7	-1.1	1
COc1ccc(-n2cnnc2SCC(=O)Nc2nc(C)c(Cl)cc2Cl)cc1	1.2%	-5	6	-2.0	-0.7	3
O=C(NNC1=C(C(=O)C(F)(F)F)CCC1)c1ccc(Br)cc1	7.4%[38.3 µM]	-2	26	-3.2	-0.2	-4
CCS(=O)(=O)c1nc(S(=O)(=O)c2ccc(Cl)cc2)c(N2CCN(CCO)CC2)s1	-1.8%	10	x	-2.1	0.9	4
Cc1ccc(-c2nc(C3CCN(S(C)(=O)=O)CC3)no2)cc1	2.2%	-24	15	-0.3	1.1	12
O=C(Nc1ccc(F)c(Cl)c1)C1Cc2c(-c3ccc4c(c3)OCO4)ccnc2O1 (configuration not stated)	-0.5%	x	-5	4.1	-0.8	-12
C/C=C(\NC(C)=O)c1ccccc1	-1.3%	-2	5	-2.3	0.1	9
O=C(COC(=O)CCS(=O)(=O)c1ccccc1)Nc1ccccc1	-1.3%	6	x	-0.7	-0.3	0
COc1cc(C)ccc1OCc1cc(C(=O)N(Cc2nccn2C)C(C)C)no1	1.0%	1	-2	-1.7	0.3	-1
Cc1ccc2c(c1)cc1c(=O)n(CC(=O)NC(C)CCc3ccccc3)nc(C)n12 (configuration not stated)	2.2%	26	x	x	-0.3	x
CCn1nnnc1SCC(=O)N1c2ccccc2NC(=O)CC1C (configuration not stated)	1.1%	-6	1	-0.9	-0.5	5
COc1ccc(NC(=O)c2sc(N3CCOCC3)nc2-c2ccccc2)c(OC)c1	-0.1%	-10	-1	-1.3	0.4	9
CCc1ccccc1NC(=S)N(CCN1CCCCC1)Cc1ccco1	-0.6%	10	5	-2.0	1.0	-2
O=C(C1=C[C@H](c2ccccc2)C[C@H](OCc2ccc(CO)cc2)O1)N1CCOCC1	0.2%	-8	5	-1.3	-0.1	7
CC1(C(=O)NS(=O)(=O)C2CC2)CCN(C(=O)c2c(F)cccc2F)C1 (configuration not stated)	1.1%	x	-3	-4.4	0.2	6
COC(=O)C(C(=O)OC)[C@@H]1C=C[C@H](C[N+](=O)[O-])N(C(C)=O)C1	0.0%	-1	-24	-4.3	-0.1	-19
Cc1ccc(NC(=O)C2CCC(CNS(=O)(=O)c3ccc4c(c3)C(C)(C)C(=O)N4C)CC2)cc1 (configuration not stated)	3.5%	5	x	x	0.9	x
CC(C)(C)c1ccc(CCC(CC(=O)O)CC(=O)O)cc1	1.6%	-3	x	1.6	0.8	8
O=c1oc(=O)c2ccccc2c2ccccc12	-4.7%	-10	1	-1.0	0.3	0
CCOC(=O)Cc1ccc(NS(=O)(=O)c2ccc(SC)cc2)cc1	-2.8%	27	4	-0.4	-1.3	2
COc1cc(-c2noc(-c3cc(C(C)C)[nH]n3)n2)cc(OC)c1OC	0.0%	24	x	x	-0.9	x
CC(C)NC(=O)C1CCN(C2CCN(Cc3cn[nH]c3-c3ccccc3)CC2)CC1	-1.8%	5	5	-1.8	-0.6	6
C[n+]1ccccc1/C=C1\Sc2ccccc2N1CCO	0.4%	-16	2	-2.3	1.0	14
Cc1ccc(-c2nc(N/N=C/c3ccncc3)c3ccccc3n2)cc1	8.6%[38.3 µM]	-1	-24	-0.3	-0.1	-30
Cc1noc(C)c1COc1ccc(C(=O)NNC(=O)c2ccccc2F)cc1	5.5%	-1	9	2.1	0.0	10
CCOC(=O)N1CCN(C(=O)CCc2ccc(S(=O)(=O)NC(C)C)cc2)CC1	-0.5%	9	x	2.1	-1.0	2
CN=c1sc2ccccc2n1CC(O)COc1ccccc1 (configuration not stated)	10%	44	10	-2.4	1.3	12
Cc1ccc(S(=O)(=O)N2CCCC2)cc1C(=O)N1CCC(C)CC1	-1.2%	-7	4	-5.0	-0.5	2
CCN1C(=O)c2ccccc2Sc2ccc(NC(=O)c3ccc(Cl)cc3)cc21	2.2%	21	x	x	0.1	x
Clc1ccc(Nc2ncnc3c2nnn3Cc2ccccc2)cc1	14%	-3	0	0.1	3.5	3
C[C@H]1CN([C@@H](C)CO)S(=O)(=O)c2ccc(-c3cncnc3)cc2O[C@H]1CN(C)C(=O)NC1CCCC1	1.8%	x	6	-2.5	x	3
O=C(Cn1ccc([N+](=O)[O-])n1)NCc1cccnc1	-0.9%	-1	4	-3.0	-0.3	-10
O=C(Oc1coc(CSc2ncccn2)cc1=O)c1ccccc1[N+](=O)[O-]	0.5%	-16	3	0.8	-0.7	-11
COC(=O)C1=C(C)N(C)C(=O)/C1=C\c1ccco1	1.5%	5	-2	-5.0	-1.0	-3
O=C(Nc1ccccc1F)N(Cc1ccc(F)cc1)Cc1nc2ccccc2c(=O)[nH]1	u	1	7	0.9	-0.1	7
CCc1ccccc1NC(=S)NC1CC2CCCC(C1)N2Cc1cccs1 (configuration not stated)	x	0	-1	-1.2	0.8	-14
S=C(NCCCc1ccccc1)Nc1ccc(Cl)cc1	u	7	3	2.2	2.9	-4
O=C(Oc1ccccc1/C=C\C(=O)c1cc2ccccc2o1)c1ccccc1	-1.5%	7	9	0.3	1.8	-1
Cc1ccc(C(=O)NCCOc2ccc(Cl)cc2)cc1	9.1%	26	10	-4.6	1.6	0

Continuation.
Molecule	PINK1 modulator	TRPML1 blocker	CtBP-E1A inh	D2 agonist	TRPML1 agonist	Six1-Eya2 blk
COc1ccccc1NC(=O)c1ccccc1NS(=O)(=O)N1CCCC1	-2.6%[38.3 µM]	17	6	-1.7	0.9	-1
CC1(C(=O)NS(=O)(=O)c2ccccc2)CCN1C(=O)Cc1ccccc1Cl (configuration not stated)	-0.2%	x	6	-2.5	-0.3	8
COc1ccc(C(=O)Nc2cc(S(=O)(=O)c3ccc(Cl)cc3)c(O)c(C)c2C)cc1	1.0%	7	x	x	-0.1	x
Cc1cc(=S)[nH]c(=S)[nH]1	-0.7%	x	-3	-0.5	x	3
CC(=O)Nc1ccc(/C=N/Nc2nc3ccccc3s2)cc1	0.9%	39	x	-5.3	-0.7	3
Cc1nc(-c2ccc(C(=O)NCCO)cc2)cs1	0.6%	7	6	-3.8	0.4	8
Cc1ccc(-n2c(-c3ccco3)nc3c(cnn3-c3ccccc3C)c2=O)cc1	10.0%&7.7%	5&2	1	-4.3	-0.4&0.7	3
Cc1cccc(-n2c(-c3ccoc3C)n[nH]c2=S)c1	-2.4%	2	-3	-1.8	0.4	-3
Cc1cccc(C(=O)OC(C)C(=O)NC(=O)NC2CCCCC2)c1O (configuration not stated)	25%	-11	-1	-3.6	0.8	-11
COc1cc(NC(=O)C2=C(N3CCOCC3)/C(=C\c3ccc(N(C)C)cc3)CCC2)cc(OC)c1OC	3.1%	1	-7	-2.7	2.0	-5
COc1cc2ccccc2cc1C(=O)Nc1cccnc1	0.9%	-7	-20	2.0	-0.3	-1
CS(=O)(=O)c1ccc2nc(NC(=O)CC3CCCC3)sc2c1	0.5%[38.3 µM]	52	3	0.0	-0.5	0
O=C(NCCc1ccccc1Cl)c1cc2ccccn2n1	1.6%	5	x	x	1.2	x
COc1ccccc1CN1C(=O)C(C)ON=C1c1ccccc1F (configuration not stated)	-0.4%	x	7	4.0	-1.2	-1
COc1ccc2oc(=O)c(-c3nc(-c4ccc(C)c(C)c4)cs3)cc2c1	0.8%	-8	x	x	-0.7	x
COc1cc2c(cc1OC)C(c1ccccc1)NC(C)(C)C2 (configuration not stated)	2.0%	-4	x	-5.1	1.3	2
Cc1ccsc1/C=N/Nc1ncnc2nc[nH]c12	0.3%	-24	x	-5.0	3.2	u
S=C(Nc1ccccn1)NC1CCCC1	3.2%	-12	8	-1.5	0.4	2
